Vif A3G = HIV-1 Vif–A3G interaction blockers – biochemical, TR-FRET, GST-Vif 1-94, biotin-A3G peptide, dose response retest, primary screen (AID 1117319) | 260,000 tested, 0.57% active | inhibition, %, or IC50 in µM where a hit was titrated | TR-FRET GST-Vif / biotin-A3G peptide binding; higher % means a stronger effect; test concentration not given here; strong numbers were not always called active;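 active = above the screen mean plus three standard deviations and confirmed in dose response; inconclusive = results disagree or hit not tested in dose response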;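 also: Vif residues 1-94 fused to GST binding biotinylated APOBEC3G peptide 110-148; 0% = full assay without inhibitor and 100% = GST in place of GST-Vif; retest series ran down from 100 µM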
E coli growth = inhibitors of Escherichia coli growth. 330,000 tested, 0.21% active. OD600, 23 h; hits give low values. OD600 absorbance (concentration not given with the values);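 active = OD600 absorbance below the run mean of sample wells minus 3.6 SD, in any replicate, cut at about 0.56 in these data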;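 also: stock transfer was 300 nL into about 60 µL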
MLL AF4-AF9 inh = blocks AF4 peptide binding to human AF9; P42568; AlphaScreen, biotin-AF4 peptide binding to FLAG-AF9; inhibition, % at 10 µM; 350,000 tested, 0.47% active;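 active = every replicate reaching a set inhibition limit, whatever the replicate mean, cut at about 25% in these data; inconclusive = mean inhibition reaches that limit but some replicates miss it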;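 also: 0% = plate neutral control median and 100% = total signal loss; the record names both 10 and 1 µM as test concentration; the first replicate is given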
Target sequence (P42568 whole entry, looked up): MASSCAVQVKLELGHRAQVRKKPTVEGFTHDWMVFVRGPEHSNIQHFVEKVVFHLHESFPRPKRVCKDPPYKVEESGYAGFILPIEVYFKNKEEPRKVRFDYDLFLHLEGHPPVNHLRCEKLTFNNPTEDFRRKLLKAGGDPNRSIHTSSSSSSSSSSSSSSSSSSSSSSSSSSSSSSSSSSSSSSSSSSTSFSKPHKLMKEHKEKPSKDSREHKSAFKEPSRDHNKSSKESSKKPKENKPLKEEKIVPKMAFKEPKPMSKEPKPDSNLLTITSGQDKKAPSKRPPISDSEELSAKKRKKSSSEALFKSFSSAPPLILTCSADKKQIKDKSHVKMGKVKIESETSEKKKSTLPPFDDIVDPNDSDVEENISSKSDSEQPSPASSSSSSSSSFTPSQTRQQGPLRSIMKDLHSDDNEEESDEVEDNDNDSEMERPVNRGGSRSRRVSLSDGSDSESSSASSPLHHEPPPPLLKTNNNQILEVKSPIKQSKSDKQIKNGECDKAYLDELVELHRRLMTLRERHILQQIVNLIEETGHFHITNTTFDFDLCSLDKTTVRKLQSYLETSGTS
rRNA inh HTS = inhibitors of bacterial rRNA selective over humanized ribosomes. E. coli WT GFP vs humanized-ribosome RFP mutants, fluorescence, 24 h; hits give low values; DMSO median 0, no signal -100. GFP signal change (wild-type ribosome), % (concentration not given with the values). 350,000 tested, 1.6% active. AID 720706;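 active = significant combined selectivity score with lowered wild-type GFP, culture density cut under 30%, mutant RFP and density less affected; inactive = any of these conditions unmet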; also: one replicate is shown; some compounds called inactive have numbers as strong as hits
HNF4A DNA FP = change in binding of human HNF4 alpha to DNA; P41235; HNF4a-FITC DNA binding, fluorescence polarization, 1 h; activity change, % at 10 µM; 360,000 tested, 0.3% active; in the data active = activity change above about 30%, passing the limit was not always enough;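 also: controls were the assay level and a saturating level of protein; the project sought stronger binding though the title names inhibitors; some compounds called inactive have numbers as strong as hits; positive values seem to mean higher polarization but the record does not say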
Target sequence (P41235 whole entry, looked up): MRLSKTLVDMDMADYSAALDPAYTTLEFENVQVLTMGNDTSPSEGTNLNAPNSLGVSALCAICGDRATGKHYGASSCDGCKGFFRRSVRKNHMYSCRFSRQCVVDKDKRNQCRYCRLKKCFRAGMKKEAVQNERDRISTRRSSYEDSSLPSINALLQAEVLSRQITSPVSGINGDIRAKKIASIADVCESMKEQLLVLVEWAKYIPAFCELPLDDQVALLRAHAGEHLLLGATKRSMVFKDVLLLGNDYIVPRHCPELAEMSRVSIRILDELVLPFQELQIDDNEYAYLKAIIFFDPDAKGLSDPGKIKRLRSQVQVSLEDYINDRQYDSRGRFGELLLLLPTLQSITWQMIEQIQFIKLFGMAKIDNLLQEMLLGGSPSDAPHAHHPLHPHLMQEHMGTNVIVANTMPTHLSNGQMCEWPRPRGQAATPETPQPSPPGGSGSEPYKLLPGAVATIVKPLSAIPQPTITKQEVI
ALR inh = blocks human ALR sulfhydryl oxidase activity | 290,000 tested, 3.8% active | purified ALR, DTT oxidation, H2O2 HRP-luminol luminescence | inhibition, % (no concentration beside the values) | P55789 | AID 485317;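 active = mean and each replicate at 75% or more; inconclusive = only one of the two met; inactive = neither met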;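 also: stock transfer was 7.5 nL into about 7.5 µL; 0% = neutral wells and 100% = wells with inactivated enzyme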
FGF22 binding = FGF22 (human) thermal shift binding; Q9HCT0; recombinant FGF22 thermal shift, SYPRO orange fluorescence; percent of sucrose octasulfate shift, DMSO zero; AID 651658; calls only at 9.99 µM; 340,000 tested, 1.5% active;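 active = melting point raised past a set limit in the mean and every replicate; inconclusive = no clear call; three in four hits are not shown here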
rRNA inh HTS OD600 = also measured in rRNA inh HTS; calls as there; OD600 change, %; measured here: OD600 growth;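 optical density of the mix in the first replicate; 0 = DMSO median and -100 = no signal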
rRNA inh HTS RFP = also measured in rRNA inh HTS; calls as there; RFP signal change, %; measured here: RFP humanized mutant strains;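 first replicate; 0 = DMSO median and -100 = no signal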
* marks the source's active call; other numbers are inactive results; i = inactive; ? = inconclusive; · = not tested or not shown; & = joins results of further samples. Some of the compounds tested. The share of hits here may be higher or lower than overall.

Fields – Vif A3G	rRNA inh HTS OD600	HNF4A DNA FP	ALR inh	rRNA inh HTS RFP	FGF22 binding	MLL AF4-AF9 inh	E coli growth	rRNA inh HTS
- CCOc1cc(/C=C2\C(=O)ON=C2c2ccccc2)cc(Br)c1O
    7%	1	4.6	·	20	i	-1.7	0.67	-6
- COc1cc([N+](=O)[O-])ccc1NC(=S)N1CCN(c2ccccn2)CC1
    33%	0	1.1	-51	1.5	i	2.3	0.66	4
- CC(C)(C)NC(=O)CSc1nnc(-c2ccncc2)n1Cc1ccccc1
    70%	·	-2.1	-5	·	·	·	0.72	·
- Cc1ccc(C(=O)NS(=O)(=O)c2ccc(C)cc2)cc1
    1%	-6	0.1	-7	-5.9	i	-76	0.69	4
- CN(C(=O)CSc1nnc(-c2ccccc2)c(-c2ccccc2)n1)C1CCS(=O)(=O)C1 (stereo not drawn)
    10%	-24	-1.6	4	-2.3	i	1.4	0.68	-12
- COc1ccc(NC(=O)CSCc2cc(=O)n3c(C)csc3n2)cc1
    ·	4	-4.6	23	-2.6	i	0.0	0.69	3
- COc1ccc(N(C(=O)C(C)C)S(=O)(=O)c2cccc([N+](=O)[O-])c2)cc1
    1%	-3	-5.0	-20	-0.9	i	11	0.69	-9
- CN(C)S(=O)(=O)c1cccc(NC(=O)c2ccc(S(=O)(=O)N3CCCC3)cc2)c1
    -2%	0	3.9	-2	-1.5	i	-1.2	0.68	-4
- CC(=O)NCCc1cc2ccc(C)cc2[nH]c1=O
    9%	·	-4.7	-6	·	·	·	0.7	·
- CCCN1C2CCCC1CC(NC(=O)Nc1ccc(C(C)C)cc1)C2 (stereo not drawn)
    20%	·	-3.6	·	·	·	·	0.67	·
- O=C(Nc1ccc(F)cc1)N[C@H]1CC[C@H](CC(=O)N2CCCCC2)O[C@@H]1CO
    ·	7	·	·	1.3	i	-14	·	-1
- O=C(Nc1ccon1)c1ccc(F)c(S(=O)(=O)N2CCCCC2)c1
    9%	15	-0.1	-17	-1.0	i	0.1	·	13
- Cc1ccc(Nc2nnc(SCC(=O)c3cc4ccccc4o3)s2)cc1C
    6%	·	4.7	·	·	·	·	0.68	·
- Cc1ccc(N2CN=C(c3ccccc3)NC2=S)cc1
    12%	·	-1.9	2	·	·	·	0.67	·
- COC(=O)CSc1nc2ccccc2o1
    6%	·	0.9	-9	·	·	·	0.71	·
- COc1cc(OC)cc(C(=O)N[C@H](C(=O)Nc2nc(-c3cc(OC)ccc3OC)cs2)C(C)C)c1
    ·	7	0.2	-13	9.8	i	-1.5	0.69	12
- Cn1cc(/C=C(\C#N)C(=O)Nc2ccccc2O)c2ccccc21
    -3%	·	7.0	·	·	·	·	0.69	·
- C=CCNC(=O)C(=O)N/N=C/c1ccco1
    ?	5	0.5	-10	-3.0	i	-18	·	16
- Cc1nc(SCC(=O)NC2CCCC2)[nH]c(=O)c1Cc1ccccc1
    1%	-2	0.3	3	2.9	i	9.2	0.69	16
- CC(C)Cc1cc(C(=O)N2CCN(c3ccc(F)cc3)CC2)no1
    9%	-51	-1.5	10	3.9	i	-5.7	0.77	-13
- CCC(CO)Nc1ccn2nc(-c3cc(OC)c(OC)c(OC)c3)cc2n1 (stereo not drawn)
    ·	9	0.7	·	1.1	i	-0.6	·	-3
- Cc1noc(C)c1NC(=O)N1CCN(Cc2ccccc2)CC1
    ·	11	1.9	-3	0.0	i	-1.5	0.66	5
- Cc1ccc2c(c1)c1c(n2CC(O)Cn2c(C)nc3ccccc32)CCCC1 (stereo not drawn)
    -1%	-10	2.4	·	4.0	i	-1.3	0.77	-3
- CCCNC(=O)C[C@@H]1C[C@H]2c3cc(NC(=O)CC4CC4)ccc3O[C@H]2[C@@H](CO)O1
    ·	-2	·	·	-1.2	i	-1.5	·	4
- CCOC(=O)C1(Cc2ccccc2)CCCCCC1=O (stereo not drawn)
    ·	-2	2.5	·	0.1	i	-3.3	·	10
- CC1=C(C(=O)Nc2cccc(C(=O)NC3CCCCC3C)c2)SCCO1 (stereo not drawn)
    ·	-11	-0.1	1	-2.3	i	-5.1	0.68	-5
- C[C@@H]1CCCCO[C@H](CN(C)C(=O)Nc2cccc3ccccc23)[C@@H](C)CN([C@H](C)CO)C(=O)c2cc(N(C)C)ccc2O1
    5%	-7&-1	2.9	·	-0.9&-4.2	i	15&3.5&7.2	·	4&0
- Nc1cccnc1Oc1ccc(F)cc1F
    ·	-4	1.3	-16	3.3	i	-1.2	0.62	6
- [O-]/C(=C(\C(=S)Nc1cccc2ccccc12)[n+]1ccccc1)c1ccc(Cl)s1
    -4%	·	5.5	-17	·	·	·	0.72	·
- CC(=NNC(=O)c1ccncc1)c1ccccc1Cl
    -3%	17	1.8	·	0.4	i	1.3	0.67	8
- Cc1ccc(OCC(=O)N2CCc3ccccc32)c([N+](=O)[O-])n1
    -2%	0	6.5	-18	-3.0	i	-0.5	0.67	17
- C[C@H](CO)N1C[C@H](C)[C@H](CN(C)CC2CCCCC2)OCc2cnnn2CCCC1=O
    ·	-2	·	·	-2.7	i	-13	·	2
- COc1cc(-c2ccc(N3C(c4ccsc4)=Cc4ccc(F)cc4C3c3c[nH]c4ccc(C#N)cc34)cc2)cc(OC)c1OC (stereo not drawn)
    ·	-6.4*	4.2	·	0.6*	i	-2.0	·	-25*
- CCn1c(C)c(C)c2cc(C(=O)NCCN3CCOCC3)ccc21
    ·	2	5.8	1	31	i	3.8	0.66	1
- CC(=O)Nc1ccc(NC(=O)CSc2nc(=O)n(Cc3cccnc3)c3c2CCC3)cc1
    ·	9	6.9	·	-0.6	·	0.1	·	14
- CC1c2ccccc2SC(CCCN(C)C)c2ccccc21 (stereo not drawn)
    -9%	-32	-1.9	-11	-4.3	i	9.1	0.7	-33
- O=C(Nc1ccon1)c1csc2ccccc12
    -2%	·	0.5	-14	·	·	·	0.71	·
- Cc1ccc(N=C/C(C(=O)C(F)(F)F)=C(\O)c2cccs2)cc1
    -1%	·	3.0	-3	·	·	·	0.72	·
- COc1ccc(/C(C)=N/N=C(\C)c2ccc(OC)cc2OC)c(OC)c1
    -10%	0	-0.9	-3	-1.1	·	1.3	·	4
- Cc1cc(Cl)c2oc(C(=O)N3CCOCC3)c(C)c2c1
    ·	-19	-3.1	·	-4.6	i	-1.3	·	-14
- Cc1ccccc1Nc1c(-c2cccnc2)nc2ccccn12
    ·	-2	1.1	68	-2.4	·	-1.7	0.69	0
- COc1cc(/C=C/C(=O)Nc2nnc(CC(C)C)s2)cc(OC)c1OC
    ·	-2	0.7	0	-4.1	i	-0.4	0.71	-4
- COc1ccccc1S(=O)(=O)N1CC[C@@H]2[C@@H](CO)N(C)c3ccc(-c4ccccc4)cc3[C@@H]21
    ·	15	·	·	-2.2	i	8.3	·	-1
- Cc1cccc(N2C(=O)N3[C@H](c4ccc(Br)cc4)[C@@H]4C(=O)N(C(C)(C)C)C(=O)[C@@H]4[C@]3(C)C2=O)c1
    ·	-7&-1	1.9	-9	-1.0&-0.3	i	-2.7	·	-9&-13
- O=C(COc1cccc(Cl)c1)Nc1nc(-c2ccc(S(=O)(=O)N3CCOCC3)cc2)cs1
    -30%	·	1.4	·	·	·	·	0.73	·
- COCCNC(=O)c1cn(C)c2ccc(S(=O)(=O)N3CCCCC3)cc2c1=O
    -6%	5	3.1	-5	0.2	i	0.9	0.72	-2
- COC(=O)c1ccc(-c2nc(CN3CCCN(C(=O)c4ccco4)CC3)c(C)o2)cc1
    ·	-1	1.0	1	3.5	i	1.0	0.7	1
- CC(=O)c1ccccc1NC(=O)COC(=O)C1CCCN1S(=O)(=O)c1ccccc1F (stereo not drawn)
    4%	·	1.6	-2	·	i	-0.8	0.67	·
- C/C(Cn1nc([N+](=O)[O-])cc1C)=N\NC(=O)c1ccc(O)cc1O
    6%	·	-1.8	5	·	·	·	·	·
- C[C@@H]1CN([C@@H](C)CO)C(=O)c2ccccc2-c2ccccc2CO[C@@H]1CN(C)Cc1ccc2c(c1)OCCN2C
    ·	2	·	·	-0.3	i	37*	·	1

The list continues.
Fields – Vif A3G	rRNA inh HTS OD600	HNF4A DNA FP	ALR inh	rRNA inh HTS RFP	FGF22 binding	MLL AF4-AF9 inh	E coli growth	rRNA inh HTS
- CC1=NN(C(=O)COc2ccccc2)C(O)(c2cccnc2)C1 (stereo not drawn)
    -9%	7	2.0	15	-1.3	i	-2.2	0.66	-4
- OCCn1c(Cl)nc2ccccc21
    4%	·	4.4	-10	·	·	·	0.75	·
- CC(C)CN(CC(C)C)C(=O)C12CCC(C)(C(=O)C1)C2(C)C (stereo not drawn)
    -2%	·	4.6	-23	·	·	·	0.72	·
- Cc1cc(C)c(C(=O)/C=C/c2ccco2)c(=O)[nH]1
    8.8µM*	7	-4.8	-11	-4.6	i	-11	0.66	15
- Cc1ccnc(NS(=O)(=O)c2ccc(N)cc2)n1
    -4%	0	0.6	-17	-1.4	i	-4.0	0.7	9
- COc1cc(C(=O)Nc2ccc3c(c2)OCCO3)ccc1OC(F)F
    7%	·	-1.0	-3	·	·	·	0.66	·
- CCCCn1nnnc1C(c1ccccc1)N1CCN(c2ncccc2C(F)(F)F)CC1 (stereo not drawn)
    ·	-8	-3.8	·	-2.2	i	-6.1	·	-1
- COCCNC(=O)CSCc1nc(-c2ccc(SC)cc2)oc1C
    -10%	·	19	100*	·	·	·	0.71	·
- O=S(=O)(Nc1nc2ccccc2s1)c1ccc(Cl)s1
    -5%	·	1.8	7	·	·	·	0.63	·
- CCCOC(=O)c1ccc(NC(=O)c2c(Cl)ccc(Cl)c2OC)cc1
    -1%	-29	-1.8	-2	-6.9	i	-8.6	0.72	-25
- O=C(Nc1cccc(C(F)(F)F)c1)c1cccnc1
    5%	3	-0.8	-1	-6.3	i	3.2	0.67	-8
- CCOC(=O)[C@H](CCc1ccccc1)N[C@@H](C)C(=O)N1CCC[C@H]1C(=O)O
    2%	·	-0.2&-2.7	·	·	i	-7.1&3.7	·	·
- Cc1ccc(S(=O)(=O)Nc2cccc3c2O[C@H](CN(C)S(=O)(=O)c2ccc(Cl)cc2)[C@@H](C)CN([C@@H](C)CO)C3=O)cc1
    ·	7	·	·	4.1	i	-5.7	·	1
- CC(=O)c1csc(COc2ccc(Cl)cc2)n1
    1%	·	2.0	2	·	i	-0.6	0.62	·
- C[C@@H]1CCCCO[C@H](CN(C)S(=O)(=O)c2cccs2)[C@@H](C)CN([C@@H](C)CO)C(=O)c2cc(NC(=O)Nc3ccc4c(c3)OCO4)ccc2O1
    ·	3	·	·	-2.4	i	1.4	·	0
- CS(=O)(=O)c1sc(C(=O)NC(=S)Nc2ccc(OC(F)(F)F)cc2)c2c1C=CCC2
    6%	·	-0.2	4	·	i	1.0	0.68	·
- CCOC(=O)C1(CCCc2ccccc2)CCN(C(=O)c2ccoc2)CC1
    0%	-55	-0.2	-2	3.0	·	3.0	0.69	-34
- COc1ccc(NC(=O)N(C)C[C@H]2OCCCC[C@H](C)Oc3ccc(NC(=O)NC(C)C)cc3C(=O)N([C@H](C)CO)C[C@@H]2C)cc1
    ·	-2	·	·	1.5	i	-3.4	·	-5
- CCOc1ccc(C(=O)CCC(=O)N(CC)CC(=O)Nc2c(F)cccc2F)cc1
    ·	6	3.4	1	0.6	i	2.6	0.7	-1

Two compounds drawn at random from the list so far, as already listed:
Fields – Vif A3G	rRNA inh HTS OD600	HNF4A DNA FP	ALR inh	rRNA inh HTS RFP	FGF22 binding	MLL AF4-AF9 inh	E coli growth	rRNA inh HTS
- COc1ccc(NC(=O)CSCc2cc(=O)n3c(C)csc3n2)cc1
    ·	4	-4.6	23	-2.6	i	0.0	0.69	3
- CCOc1ccc(C(=O)CCC(=O)N(CC)CC(=O)Nc2c(F)cccc2F)cc1
    ·	6	3.4	1	0.6	i	2.6	0.7	-1

Assay outcomes: PubChem, several laboratories
